# Source: PubChem BioAssay
# CtBP-E1A blk: blocks the CtBP interaction with E1A. activity change, % (test concentration not listed). 340,000 tested, 0.49% active. AlphaScreen GST-E1A/His-CtBP binding, 1536-well; stronger effect = lower value; control for the full effect not named in the record. AID 651724; in the data active means activity change below about -65%; inconclusive means about -30% to -65%; inactive means above about -30%; further: on the % scale 0 is the no-effect control and ±100 the full control effect; compound concentration not given in the record
#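 AlphaScreen with 125 nM GST-E1A and 125 nM His-CtBP (5X stocks) in Tris pH 8.0, 300 mM NaCl, BSA, Tween 20, TCEP. Compounds preincubated 2 h at 37 deg C, then glutathione donor/nickel acceptor beads added for 1 h at 37 deg C in dark.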
# Menin MLL FP FL: inhibitors of human menin-MLL interaction, wild-type MLL peptide | Fluorescence polarization, fluorescein-MLL peptide displacement from menin | FP activity change, % at 61.4 µM | 290,000 tested, under 10 active | AID 1766; inconclusive = falling polarisation curve, or a change in total fluorescence; inactive = total fluorescence flat and polarisation flat or rising; no compound was filed as active; the % refers to the polarisation; negative = inhibition;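 further: % of control where 0% means no effect; inhibitors lower the polarisation; unlabelled MLL peptide was the positive control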
# TRPV1 PAM: enhances activation of the human vanilloid receptor TRPV1 | Q8NER1 | TRPV1-expressing cells, Fluo-8 calcium influx, capsaicin EC20 potentiation; host cell line not named in the record; control for the full effect not named in the record | potentiation, % at 8.33 µM | 320,000 tested, 0.02% active; active means potentiation above 80%; inconclusive means 30% to 80%; inactive means below 30%; further: 0% is about no effect
# Target sequence (Q8NER1 whole entry, looked up): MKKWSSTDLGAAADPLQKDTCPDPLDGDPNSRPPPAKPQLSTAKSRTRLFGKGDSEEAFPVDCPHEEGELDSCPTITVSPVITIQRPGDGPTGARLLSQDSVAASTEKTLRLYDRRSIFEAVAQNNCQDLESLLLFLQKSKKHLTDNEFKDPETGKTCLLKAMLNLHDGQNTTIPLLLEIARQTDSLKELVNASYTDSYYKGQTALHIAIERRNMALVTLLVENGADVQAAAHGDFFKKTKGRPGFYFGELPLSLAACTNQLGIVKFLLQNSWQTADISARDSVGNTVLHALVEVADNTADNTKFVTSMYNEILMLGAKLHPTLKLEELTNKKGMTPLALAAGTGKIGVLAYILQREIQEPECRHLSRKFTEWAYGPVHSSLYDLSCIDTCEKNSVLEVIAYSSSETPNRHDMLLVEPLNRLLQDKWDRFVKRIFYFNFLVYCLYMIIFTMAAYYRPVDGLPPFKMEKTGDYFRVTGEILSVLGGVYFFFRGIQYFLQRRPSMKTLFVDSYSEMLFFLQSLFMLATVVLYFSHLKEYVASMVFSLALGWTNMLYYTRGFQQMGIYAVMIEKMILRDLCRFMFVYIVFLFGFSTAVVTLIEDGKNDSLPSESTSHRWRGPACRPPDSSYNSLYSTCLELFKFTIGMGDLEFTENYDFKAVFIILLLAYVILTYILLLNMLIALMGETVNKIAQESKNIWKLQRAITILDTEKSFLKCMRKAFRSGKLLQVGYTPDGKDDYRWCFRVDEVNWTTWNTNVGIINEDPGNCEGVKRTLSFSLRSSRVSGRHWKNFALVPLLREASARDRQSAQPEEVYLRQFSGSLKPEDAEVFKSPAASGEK
#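 Cells expressing TRPV1 were dye-loaded with Fluo-8 and read kinetically: 10 s baseline, 3 min after compound (agonist portion), then 2 min after EC20 capsaicin (allosteric enhancer portion). Calcium-bound dye fluorescence at 480/520 nm.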
# Sfp inh: Sfp phosphopantetheinyl transferase inhibition; 310,000 tested, 3.5% active; Biochemical Sfp PPTase activity, qHTS; Potency, µM, without a hit: max response, negative = inhibition, actives largely listed as inhibitors; Q9F4F7; active means well fitted inhibition curve with a large enough effect; inconclusive means small, poorly fitted or top-dose-only effect, or another doubt; inactive means no such curve, though single readings can be large or run the other way;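 further: the enzyme is Sfp with the accession as filed and its product quenches rhodamine fluorescence; potency means the concentration at half of the fitted maximal effect; 0% = enzyme reaction without inhibitor and -100% = no enzyme wells; top concentration of the series not given in the record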
#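 Step 1, compound plus 15 nM Sfp-PPTase, 15 min, room temperature. Step 2, add rhodamine-CoA (5 uM) and BHQ-2-YbbR (12.5 uM). Step 3, read 525/598 nm fluorescence at 0 and 30 min.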
# gsp agonist: agonists of gsp mutant (McCune-Albright syndrome); gsp mutant cells, cAMP HTRF, 30 min; control for the full effect not named in the record; Potency, µM (doses to about 76.9 µM), inactives show top-dose activation (cAMP increase), hits mostly activators; 340,000 tested, 0.13% active; active = well fitted activation curve with a large enough effect; inconclusive = small, poorly fitted or top-dose-only effect, or another doubt; inactive = no such curve, though single readings can be large or run the other way; cell line not stated here;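 further: phosphodiesterase inhibitor Ro 20-1724 added with compounds to block cAMP breakdown; potency means the concentration at half of the fitted maximal effect; nearly all actives have a fitted effect of over 60% in size; about a fifth of the inactives were tested at one dose only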
#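 Cells in DMEM/10% FBS with G418 were pretreated with compounds in DMSO plus […] (300 uM stock) for 30 min at 37C. cAMP was measured by HTRF (cAMP-d2 plus anti-cAMP antibody-K) after 30 min at room temperature.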
# gsp antag: antagonists of gsp mutant (McCune-Albright syndrome) | gsp-mutant cells, cAMP HTRF, 30 min; control for the full effect not named in the record | Potency, µM (highest dose often 76.9 µM), for inactives: at the top dose activity change, negative = inhibition, most hits filed as inhibitors | 340,000 tested, 0.4% active | AID 624288; active = falling curve of any shape with a large fitted effect; inconclusive = falling curve, mostly with a smaller effect; inactive = flat or rising curve; cell line not stated here;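 further: intracellular cAMP measured with PDE inhibitor Ro 20-1724 present during compound exposure; potency means the concentration at half of the fitted maximal effect; on the % scale 0 is the no-effect control and ±100 the full control effect; nearly all actives have a fitted effect of over 65% in size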
#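 HTRF cAMP measurement after 30 min RT detection following 30 min, 37C compound treatment alongside […] (added as 300 uM solution) in G418-selected cells seeded at 2000/well and grown 16–24 h.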
# ClpP mod: qHTS Assay for Activators of ClpP; purified B. subtilis ClpP, FRET peptide cleavage, 20 min; Potency, µM (highest dose often 57.5 µM), without a hit: at the top dose activity change, negative = active; 340,000 tested, 1.9% active; AID 651965, 2013; active = well fitted falling curve with a large enough effect; inconclusive = small, poorly fitted or top-dose-only effect; inactive = no such curve, though single readings can be large or run the other way; further: potency means the concentration at half of the fitted maximal effect; the source files actives as falling curves though it sought activators and does not explain the sign; nearly all actives have a fitted effect of over 65% in size; many hits overshoot -100%
# Target sequence (P80244 whole entry, looked up): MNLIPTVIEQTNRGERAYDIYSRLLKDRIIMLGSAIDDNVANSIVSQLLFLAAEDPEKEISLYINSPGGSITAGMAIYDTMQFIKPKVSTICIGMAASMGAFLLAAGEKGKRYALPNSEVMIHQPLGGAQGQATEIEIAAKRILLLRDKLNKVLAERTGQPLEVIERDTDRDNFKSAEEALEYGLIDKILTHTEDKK
#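 FRET quenching reversal measured ClpP activation: 10 microg/mL B. subtilis ClpP at pH 8 with the FRET-FV decapeptide, read at 430 nm after 320 nm excitation. The 20-min minus 0-min signal was scaled between DMSO/no-enzyme wells and ADEP (5.8 microM final).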
# An asterisk follows results filed as active; ? = inconclusive; . = no result given; [ ] = dose if it differs, or a comment.
# Results follow in this order: CtBP-E1A blk	Menin MLL FP FL	TRPV1 PAM	Sfp inh	gsp agonist	gsp antag	ClpP mod
> COC(=O)C1C2C=CC3(CN(C4CCCC4)C(=O)C13)O2 (configuration not stated)
→ -9	0.1	-1	12%	10%	7%	-1.5%
> Cn1c(NCc2ccc(Cl)cc2)nc2ccccc21
→ 0	1.9	0	-3%	8%[15.4 µM]	10%	.
> COc1ccc(/C=C/c2c([N+](=O)[O-])c(=O)n(C)c(=O)n2C)c(OC)c1OC
→ -5	-2.5	-3	8%	1%	-10%	.
> C=CCN1C(=O)N(c2ccccc2)C(=O)C1CC(=O)Nc1ccc(OC)cc1 (configuration not stated)
→ -21	-3.5	-8	21%	-5%[15.4 µM]	4%	-26%
> CN(c1ccccc1)S(=O)(=O)c1cc(C(=O)OCC(=O)c2c(N)n(C)c(=O)n(C)c2=O)ccc1Cl
→ -7	.	.	.	?	0%	0.7%
> Cc1ccccc1NC(=O)CN1C(=O)S/C(=C\c2ccc(-c3cc(C(=O)O)ccc3C)o2)C1=O
→ -14	?	13	35µM*	-2%[15.4 µM]	-13%	.
> CC(C)CCN(C)C1CCN(S(=O)(=O)c2ccc(F)cc2)CC1
→ 0	0.6	-24	13%	0%	-2%	1.5%
> Cc1ccc(C)c(CN2C(=O)CSc3ccc(C(=O)NCC(C)CN4CCC(C)CC4)cc32)c1 (configuration not stated)
→ -5	.	4	-4%	-1%[15.4 µM]	16%	.
> Cn1nnnc1SCC(=O)Nc1cccc(S(=O)(=O)N2CCCC2)c1
→ .	-2.0	0	6%	?	3%	2.1%
> NC(N)=NS(=O)(=O)c1ccc(NC(=S)Nc2ccc(F)cc2)cc1
→ .	-1.6	-1	-2%	-52%[inhibitor]	12%	1.4%
> CN(C)Cc1ccccc1Sc1ccccc1Br
→ -3	.	3	-4%	-15%	6%	-1.8%
> Cn1c(C(=O)NCc2ccc3c(c2)OCO3)cc2sccc21
→ -23	-3.1	2	-7%	-4%	-9%	-3.4%
> COc1cccc(CNC(=O)C2CCCN(c3cnccn3)C2)c1 (configuration not stated)
→ 24	.	-37	10%	?	-3%	.
> CCCn1c(N)c(N(CCOC)C(=O)c2ccc(-c3ccccc3)cc2)c(=O)[nH]c1=O
→ -8	.	13	.	5%	11%	-0.9%
> Cc1noc(C)c1S(=O)(=O)N(CC(=O)NCc1ccc(F)cc1)c1ccc(C(C)C)cc1
→ 4	.	9	7%	?	-3%	1.4%
> COc1ccc(C(=O)Nc2ccc(S(=O)(=O)N3CCN(C)CC3)cc2)cc1[N+](=O)[O-]
→ -24	2.0	0	11%	12%	-7%	0.7%
> Cc1nn(-c2ccccc2)c(C)c1N
→ 9	-4.2	-7	7%	-33%[inhibitor]	-3%	.
> COc1ccccc1CNC(=O)C1CCCN(S(=O)(=O)c2cnc[nH]2)C1 (configuration not stated)
→ -3	1.2	6	4%	-3%	6%	1.3%
> Cc1noc(/C=C/N(C)C)c1S(=O)(=O)N(C)Cc1ccc(F)cc1
→ -13	3.0	20	-11%	-26%	-27%	0.4%
> CC1(C)CC(NS(=O)(=O)c2ccccc2)CC(C)(C)N1
→ 5	5.6	-3	16%	7%	11%	-4.3%
> COC(=O)c1scc(S(C)(=O)=O)c1-n1cccc1
→ 5	-1.5	-16	16%	5%[15.4 µM]	13%	-0.8%
> CN(C)S(=O)(=O)c1cccc(NC(=O)COC(=O)CNC(=O)c2ccccc2F)c1
→ .	2.7	5	9%	22%	-6%	-2.0%
> CC12CC3CC(C)(C1)CC(C(=O)NC1=NCCS1)(C3)C2
→ 5	-1.0	0	17%	-20%	8%	1.4%
> COc1cc(C2CC(=O)Oc3cc(C)cc(C)c32)cc(OC)c1OC (configuration not stated)
→ -21	2.2[94.6 µM]	.	-4%	.	-6%	-1.1%
> CCOC(=O)c1c(NC(=O)CSc2nc3ccccc3[nH]2)sc2c1CC(C)(C)NC2(C)C
→ -6	.	-21	.	21%	-6%	-6.1%
> CC1=Nc2ccccc2/C1=C/c1c(N)n2c(S(=O)(=O)CC(C)C)nsc2nc1=O
→ ?	9.3	18	-7%	-58%[inhibitor]	-30%	.
> CC1=CC(C)C(C(=O)O)C(C(=O)O)C1 (configuration not stated)
→ 0	1.7	-1	-1%	30%	5%	1.0%
> O=C(O)C1CCCCC1C(=O)NCCc1cccc(Cl)c1 (configuration not stated)
→ -1	-1.1	-2	6%	-15%	10%	-3.8%
> O=C(COC(=O)c1ccc(Cl)nc1)NNC(=O)c1ccc(Br)cc1
→ 2	.	1	.	1%	13%	-0.2%
> Cc1ccccc1OCC(=O)Nc1ccc2[nH]ncc2c1
→ -1	-0.1	-8	6%	0%[15.4 µM]	2%	0.8%
> CC(NC(=O)c1ccccc1Cl)c1ccc(-n2ccnc2)cc1 (configuration not stated)
→ 5	.	.	.	-38%	12%	2.9%
> C#CCOCCOCCOCCNc1nc(N2CCN(C(=O)[C@H]([C@@H](C)CC)n3cc(CCCN=C(N)N)nn3)CC2)nc(N2CCN(C(=O)[C@H]([C@@H](C)CC)n3cc(CCC(=O)O)nn3)CC2)n1
→ 0	.	.	.	.	6%	3.1%
> O=C(Cc1ccccc1)NCc1ccncc1
→ 5	2.0	-12	1%	8%	6%	.
> CCOC(=O)C1CC(c2ccccc2)=NNC1=O (configuration not stated)
→ .	-0.6	-5	10%	-3%[15.4 µM]	12%	.
> Cc1cccc(NC(=O)NCc2ccc3c(c2)cc(C)n3C)c1
→ -13	?	?	50µM*	?	5%	-4.7%
> COc1ccccc1CCCNC(=O)C1CCC(=O)N(CCN2CCOCC2)C1 (configuration not stated)
→ 6	.	15	14%	6%	14%	-1.4%
> CCOC(=O)C1CCCN(C(=O)c2ccc3c(c2)OCO3)C1 (configuration not stated)
→ 7	-0.1	-2	-4%	17%	9%	-1.5%
> COc1cccc(OCCNC(=O)c2ccccc2Sc2ccccc2C#N)c1
→ 2	1.6	8	18%	-14%	?	?
> CC(=O)C(Cc1cccc(F)c1)(Cc1cccc(F)c1)C(C)=O
→ .	0.6	-15	12%	0%	-5%	0.2%
> CC1CC(C)CN(CCOc2ccccc2-c2ccccc2)C1 (configuration not stated)
→ 0	8.3	-13	-12%	-7%	3%	0.9%
> CC(/C=N/N1CCN(Cc2ccccc2)CC1)=C\c1ccccc1
→ ?	2.8	1	-6%	-8%[15.4 µM]	-4%	.
> Cc1cc(C)n(C(=O)CNC(=O)C(c2ccccc2)c2ccccc2)n1
→ 3	5.4	7	24%	-23%	9%	-0.8%
> N=C(CC1CC(=O)NC(=O)C1)C1=C(O)CCCC1=O
→ 0	-1.7	8	0%	-12%[15.4 µM]	13%	-28%
> Cc1cc(C)n2ncnc2n1
→ -15	1.2	3	0%	-10%	8%	-5.1%
> O=C(NCCCN1CCCC1=O)c1ccc(CNS(=O)(=O)c2ccc(F)cc2)cc1
→ 6	0.9	-5	9%	8%	8%	-1.8%
> COc1cc(OC)cc(C(=O)NCc2cc(C)nc3ccccc23)c1
→ 5	-11	-8	0%	24%	8%	1.4%
> O=C1CCN(C(=O)/C=C/c2ccccc2)c2ccccc21
→ .	-3.3	2	-5%	4%[15.4 µM]	9%	.
> Cc1cc(C)nc(SCC(=O)Nc2ccc(N3CCOCC3)c(Cl)c2)n1
→ 2	2.3	3	12%	10%	-13%	-3.0%
> CCOC(=O)N1CCC(c2cc(=O)n3[nH]c(-c4ccccc4)cc3n2)CC1
→ 4	4.1	30	9%	-84%[inhibitor]	12%	4.0%
> COC(=O)c1ccc2c(=O)n(NC(=O)C(c3ccccc3)c3ccccc3)c(=S)[nH]c2c1
→ 5	3.7	6	31%[activator]	22%	11%	-0.7%

# Remaining list, next part
# Results follow in this order: CtBP-E1A blk	Menin MLL FP FL	TRPV1 PAM	Sfp inh	gsp agonist	gsp antag	ClpP mod
> COc1ccc(C)cc1-n1nc2ccccc2n1
→ .	-0.6	2	-6%	24%	-3%	-19%
> COC(=O)c1cc(S(=O)(=O)NCc2ccccc2)cn1C
→ 1	0.6	-9	29%	-24%	3%	0.5%
> COCCN(CCOC)Cc1cc(=O)oc2cc3c(cc12)CCC3
→ 7	2.7	-18	-4%	0%	5%	-11%
> COc1ccc(Cl)cc1C(=O)N(Cc1nc(-c2cccc(C)c2)no1)C(C)C
→ -10	0.9	.	12%	5%	-28%	-2.8%
> Cc1ccc(S(=O)(=O)N2C[C@]3(O)C[C@@H]4C(=O)N(c5ccccc5)C(=O)[C@@H]4C[C@]3(OC(=O)NC3CCCC3)C2)cc1
→ -17	.	.	.	2%	.	-4.4%
> CCOc1ccccc1C1C(C(=O)Nc2ccc(OC)cc2)=C(C)Nc2nc(CCCO)nn21 (configuration not stated)
→ 4	2.1	-2	10%	-15%	8%	-7.9%
> O=C(Nc1cc(C(F)(F)F)ccc1Cl)C1CCN(c2nnc(-n3cccc3)s2)CC1
→ 8	3.9	1	-17%	-2%	0%	1.4%
> CN(C)CCNC(=O)Nc1cccc(Cl)c1Cl
→ -2	?	5	-14%	34%	3%	-1.8%
> Cc1ccc(S(=O)(=O)N(C)C)cc1NC(=S)N(CCC#N)Cc1cccnc1
→ 3	0.4	-6	?	18%	4%	.
> CCN(CCn1cccn1)C(=O)c1cc(COc2ccc(F)cc2Cl)on1
→ 0	3.6	0	12%	6%[15.4 µM]	6%	.
> CC1CC(C)CN(CCCNC(=O)c2ccc3c(SCC(=O)O)c4c(nc3c2)CCC4)C1 (configuration not stated)
→ 2	0.0	4	-7%	30%	10%	-2.4%
> CCCC(=O)NC(C)c1nc2ccccc2n1C (configuration not stated)
→ 4	1.9	6	-6%	3%	5%	1.1%
> CN(C)c1ccc(CN(C(=O)C2COc3ccccc3O2)C2CCS(=O)(=O)C2)cc1 (configuration not stated)
→ -12	-0.3	9	?	6%	-24%	0.1%
> O=C(c1cc2sccc2n1Cc1ccc(F)cc1)N1CCc2ccccc21
→ -1	-0.5	-2	-4%	-13%	-5%	-6.5%
> CN(C)C(=O)CSc1nnc(-c2ccncc2)n1Cc1ccco1
→ .	2.8	7	-3%	-29%	6%	0.8%
> CCc1cccc(NC(=O)Cn2c(=O)oc3cc(S(=O)(=O)N4CCOCC4)ccc32)c1
→ 2	-0.1	-5	-2%	-1%	-16%	0.9%
